Bioassay records as filed in PubChem.
2A Renilla = lowers the Renilla signal of an FMDV 2A StopGo reporter. HEK cells with a luciferase reporter of 2A StopGo recoding. Potency, µM (top dose mostly 57.5 µM), for inactives: at the top dose signal change, negative = less light. 120,000 tested, 0.32% active; active means well fitted falling curve with a large enough effect; inconclusive means small, poorly fitted or top-dose-only effect; inactive means no such curve, though single readings can be large or run the other way; note: nearly all actives have a fitted effect of over 55% in size; overnight with compound
2A firefly = lowers the firefly signal of an FMDV 2A StopGo reporter. HEK cells with a luciferase reporter of 2A StopGo recoding. Potency, µM (top dose mostly 57.5 µM), for the others: top-dose signal change, negative = less light. 120,000 tested, 0.23% active; active = well fitted falling curve with a large enough effect; inconclusive = small, poorly fitted or top-dose-only effect; inactive = no such curve, though single readings can be large or run the other way; note: nearly all actives have a fitted effect of over 60% in size; overnight with compound
Active calls of the source: *; ? = inconclusive; & = joins results of further samples; [ ] = remark or other dose. % is set by controls: 0 for no effect and ±100 for the full control effect; potency is the fitted concentration of half-maximal effect.

Every second line gives: 2A Renilla	2A firefly
> CCOc1ccc(S(=O)(=O)NCC(C)O)c2ccccc12 (stereo not given)
→ 389.3%[activator]	19.6%
> COc1ccc(OCc2ccc(-c3nc(C#N)c(N4CCC(C(N)=O)CC4)o3)o2)cc1
→ 5.3%	-5.0%
> CCc1ccccc1NC(=O)C1=CC(c2ccc(OC)c(OC)c2)=NS(=O)(=O)N1C
→ -5.0%	-10.4%
> Cc1cccc(Cn2c(SCCC(=O)O)nc3c2c(=O)[nH]c(=O)n3C)c1
→ 2.6%	6.1%
> N#C/C(=C/c1cccc(OCc2ccccc2)c1)c1nc2ccccc2[nH]1
→ 6.6%	95.8%[activator]
> Cc1oc2cc(OC(C)C)ccc2c(=O)c1-c1ccc2c(c1)OCCO2
→ -2.4%	59.7%[activator]
> Cc1cc(C)n(-c2nc3ccccc3nc2N2CCN(Cc3ccccc3)CC2)n1
→ 61.5%[activator]	0.1%
> CN(CC(=O)Nc1ccc(OC(F)(F)F)cc1)S(=O)(=O)c1ccc2c(c1)CCC(=O)N2
→ ?	22.4µM*
> O=C(/C=C/c1cccs1)OCC(=O)c1ccc2c(c1)-c1ccccc1C2
→ 6.9%	-2.2%
> Cc1ccccc1CNC(=O)C1CCCN(S(=O)(=O)N(C)c2ccc(F)cc2)C1 (stereo not given)
→ ?	?
> O=C(COC(=O)c1ccccc1-c1ccc(C(F)(F)F)cc1)c1ccc([N+](=O)[O-])cc1
→ -19.5%	-14.7%
> CC(C)(C)C(=O)NC1CCCc2ccccc21 (stereo not given)
→ 7.4%	0.6%
> COc1cc(C#N)ccc1OC(C)C(=O)Nc1cc(C)ccc1C (stereo not given)
→ 20.1%	0.0%
> CC(C)(C)C(=O)NC(Nc1ccccc1)C(Cl)(Cl)Cl (stereo not given)
→ -3.9%	-2.4%
> CCC(=O)N(CCC1(CCC(C)C)CCOC(C)(C)C1)Cc1ccccc1 (stereo not given)
→ -12.0%	-15.7%
> Cc1ccc(C(=O)N/C(=C\c2ccc(-c3ccc(Cl)cc3Cl)o2)C(=O)NC(C)(C)C)cc1
→ 10.1%	?
> COc1cccc(CNC(=O)CSc2nc(C3CC3)nc3ccccc23)c1
→ -7.9%	-11.8%
> O=C(O)c1ccc(OCc2nnnn2-c2ccccc2)cc1
→ 2.9%	0.0%
> CC(C)CC(=O)Nc1ccccc1OCc1cc(=O)n2ccccc2n1
→ -6.8%	-21.7%
> Cc1oc(-c2cccc(Cl)c2)nc1CN1CCC(C(=O)NC(C)c2ccccc2)CC1 (stereo not given)
→ -14.8%	-22.0%

Later entries
Every second line gives: 2A Renilla	2A firefly
> CCc1cc(CC)n(-c2nc3c(c(=O)n(CCOC)c(=O)n3C)n2C)n1
→ -8.1%	-5.5%
> N#Cc1nc(/C=C/c2cccs2)oc1NC1CCCCC1
→ 23.6%	153.9%[activator]
> CCN(c1ccccc1)S(=O)(=O)c1cc(C(=O)Nc2ccc(Br)cc2)ccc1F
→ ?	?
> CCOc1ccc(NS(=O)(=O)c2cc(C(=O)Nc3ccc4oc(C)nc4c3)ccc2Cl)cc1
→ 72.7%[activator]	-2.9%
> Cc1ccc(CN2CCN(C3CCNCC3)C(=O)C2=O)cc1
→ -18.7%	-21.6%
> C/C=C/C[N+](C)(C/C=C/C)CC(=O)C(C)(C)C
→ -1.9%	0.2%
> COc1ccc(NC(=O)Cn2nnc(C(=O)Nc3ccc(F)c(Cl)c3)c2N)cc1OC
→ -10.0%	-16.8%
> CCn1c(SCC(=O)c2ccc(C#N)cc2)nnc1-c1ccccc1
→ -10.0%	-10.8%
> CC(C)CC(=O)Nc1ccc(NC(=O)c2ccccc2F)cc1
→ -0.4%	0.0%
> COc1cc(OC)c(NC(=O)Cn2cnc3sc(C)c(S(=O)(=O)N4CCC(C)CC4)c3c2=O)cc1Cl
→ -10.1%	-17.3%
> CN(C)C1(c2nnnn2-c2ccc3c(c2)OCCO3)C2CC3CC(C2)CC1C3 (stereo not given)
→ 128.2%[activator]	24.1%
> O=C(NCCc1ccccn1)c1cccc(F)c1
→ 8.5%	163.3%[activator]
> COc1ccc(Cl)cc1NC(=O)CCN1C(=O)c2ccccc2Sc2ncccc21
→ 12.8%	-9.3%
> O=C(NC1CCCCC1)C(c1ccccc1)N(C(=O)c1cnccn1)c1cccs1 (stereo not given)
→ 17.3%	-9.3%
> O=C(NC1CCCC1)c1ccc(CSc2nc3cccnc3n2Cc2cccc(F)c2)cc1
→ 18.8%	-17.4%
> CCOC(=O)CNC(=O)N1CCCCCC1c1ccc(C)s1 (stereo not given)
→ 6.9%	6.0%
> COC(=O)c1cc2sc(C)cc2n1Cc1cccc(OC)c1
→ 15.3%&30.0%	15.1%&0.0%
> Cc1nc2c(C(=O)O)cnn2c(C)c1Cc1ccccc1
→ -1.8%	-2.1%
> CC1=NN(c2nc(C)cc(C)n2)C(=O)C1Cc1cccc(Cl)c1 (stereo not given)
→ -2.0%	29.1%
> Cc1ccccc1NC(=O)c1sc2nc3c(cc2c1N)CCCC3
→ 0.0%	144.5%[activator]

Three entries drawn at random from the list so far, as already listed:
Every second line gives: 2A Renilla	2A firefly
> O=C(O)c1ccc(OCc2nnnn2-c2ccccc2)cc1
→ 2.9%	0.0%
> Cc1oc2cc(OC(C)C)ccc2c(=O)c1-c1ccc2c(c1)OCCO2
→ -2.4%	59.7%[activator]
> N#C/C(=C/c1cccc(OCc2ccccc2)c1)c1nc2ccccc2[nH]1
→ 6.6%	95.8%[activator]

(continued)
Every second line gives: 2A Renilla	2A firefly
> CC(C(=O)NCc1ccccc1F)n1nc(-c2ccccc2)c2ccccc21 (stereo not given)
→ 32.4%[activator]	28.9%
> CC(C)(C)c1cc(SCc2ccc(C#N)cc2)cc(C(C)(C)C)c1O
→ -12.6%	-10.2%
> Cc1ccc(C)c(N2CCN(C(=O)c3ccc(CS(=O)c4ccccc4)o3)CC2)c1 (stereo not given)
→ ?	?
> CC(C)Sc1nc2c(c(=O)[nH]c(=O)n2C)n1CCc1ccccc1
→ -0.8%	-4.9%
> Fc1cccc(OCc2nnc(-c3ccc(Br)cc3)o2)c1
→ 15.7%	113.6%[activator]
> Cc1ccc(Cl)cc1NC(=O)CCCn1c(=O)c2cccn2c2cccnc21
→ -0.5%	-10.5%
> O=[N+]([O-])c1cc(S(=O)(=O)Nc2ccc(Cl)cc2)ccc1N/N=C/c1ccccc1
→ 156.1%[activator]	6.9%
> O=C(Nc1ccc(Cl)cc1C(F)(F)F)c1ccc(-c2ccccc2)cc1
→ 8.8%	3.6%
> CCc1ccc(OCc2nnc(SCc3cc(=O)c4ccccc4[nH]3)n2CC)cc1
→ 15.8µM*	?
> O=C(Nc1ccccc1C(F)(F)F)c1cc2nc(-c3ccccc3)cc(-c3ccccc3)n2n1
→ -15.0%	-23.9%
> Cc1cccc(Oc2coc3cc(OC(C)C(=O)OCCC(C)C)ccc3c2=O)c1 (stereo not given)
→ -10.5%	-7.7%
> Cc1ccc(C(=O)NN2CC(C(=O)OCC(=O)c3ccccc3)CC2=O)cc1 (stereo not given)
→ -2.8%	-7.2%
> COC(=O)c1cc(NC(=O)CCc2c(C)nc3c(c(C)nn3C(C)(C)C)c2C)cc(C(=O)OC)c1
→ -8.4%	-16.2%
> N#Cc1nc(C2CC2)oc1N1CCN(CC(=O)NC(=O)NC2CC2)CC1
→ -3.6%	5.7%
> O=C(O)c1ccc(-c2ccc(Br)cc2)s1
→ 5.4%	49.5%[activator]
> Cc1ccc(-n2c(SCC(=O)NCc3ccccc3)nc3n[nH]c(C)c3c2=N)cc1Cl
→ 26.3%	6.1%
> Cc1ccc(NC(=O)Cn2c(=O)oc3cc(S(=O)(=O)N4CCCC4)ccc32)cc1F
→ -25.6%	0.0%
> COc1cccc2sc(N3CCN(C(=O)CCS(=O)(=O)c4ccc(C)cc4)CC3)nc12
→ ?	?
> CCCCN(CC)C(=O)c1cc2c(=O)n3ccccc3nc2n1C
→ 18.0%	46.3%[activator]
> O=C(Nc1cc(Cl)ccc1Cl)c1cc(S(=O)(=O)N2CCCc3ccccc32)ccc1F
→ 2.3%	0.0%

(cont.)
Every second line gives: 2A Renilla	2A firefly
> CCN(C(=O)CCc1nc(-c2ccc(C)cc2)no1)c1cccc(C(F)(F)F)c1
→ -7.0%	-12.6%
> Cc1nc(COc2ccccc2C(=O)N(C)c2ccccc2)no1
→ -0.6%	13.1%
> CCOC(=O)N1CCc2c(sc3c2c(=O)n(Cc2ccccc2)c(=O)n3CC(=O)Nc2cccc(CC)c2)C1
→ ?	-14.2%
> COc1cccc(CN(C)C(=O)CN2CCCC2c2ccc3c(c2)OCCO3)c1OC (stereo not given)
→ 15.8%	1.9%
> CC1(C)C(=O)Nc2ccccc2N1C(=O)COC(=O)c1cnccn1
→ 0.1%	2.2%
> CN(CC(=O)Nc1cc(C(F)(F)F)ccc1Cl)C1CCc2ccccc21 (stereo not given)
→ -3.3%	-9.5%
> Cc1nc2c(C(=O)NCCc3ccc(Cl)cc3)cnn2c(C)c1Cc1ccc(F)cc1
→ -17.3%	-18.1%
> CCN(CC)C(=O)C1CCCN(c2ncnc3c2nc2n3CCCCC2)C1 (stereo not given)
→ -8.5%	-16.8%
> CC(NC(=O)c1nn(Cc2ccccc2)c(=O)c2ccccc12)c1ccco1 (stereo not given)
→ 187.4%[activator]	0.0%
> Cc1nc(CCNC(=O)c2scnc2C)cs1
→ -18.6%	5.3%
> CCCCCCn1nc(C(=O)Nc2ccc(OC)c(Cl)c2)c2ccccc2c1=O
→ -4.4%	15.1%
> CC(=O)N1CCCc2cc(S(=O)(=O)N(C)CC(=O)Nc3ccc(C)cc3C)ccc21
→ -13.2%	-17.8%
> O=C(Sc1ccc(Sc2ccc(SC(=O)c3ccco3)cc2)cc1)c1ccco1
→ -6.7%	40.9%[activator]
> COC(=O)C(C)N1C(=O)S/C(=C\c2ccccc2C)C1=O (stereo not given)
→ 3.8%	25.1%
> COc1ccc(-c2noc(CSc3nnc(-c4ccco4)n3C)n2)c(OC)c1
→ -3.0%	17.3%
> C#CC[N+]1(CC#Cc2ccccc2)CCOCC1
→ 34.1%[activator][1.06 µM]	34.1%
> CCOC(=O)c1cc2c(=O)n3ccccc3nc2n(CCOC)c1=NC(=O)c1cc2ccccc2o1
→ 10.0%	-9.9%
> O=C(CSc1nnc(Cc2cccs2)n1C1CC1)c1c[nH]c(C(=O)N2CCCC2)c1
→ 32.0%[activator]	12.5%
> O=S(=O)(c1ccc2c(c1)CCO2)N1CCN(Cc2ccccc2)CC1
→ -4.3%	8.9%
> Cc1cc(C)n2ncc(-c3noc(C(=O)NC4CCCC4)n3)c2n1
→ 21.8%	0.0%

The results go on:
Every second line gives: 2A Renilla	2A firefly
> CN(C)C(=O)c1ccc2oc(CN3CCN(C(=O)Nc4cccc(Cl)c4)CC3)nc2c1
→ -6.4%	-4.3%
> CC(C)c1cc(C(=O)NC(C2CC2)C2CC2)c2cnn(C(C)C)c2n1
→ 35.1%[activator]	-5.8%
> CC(=O)c1ccc(N2CCN(c3ncnc4onc(C)c34)CC2)cc1
→ -7.3%	-6.5%
> C=CC[C@H]1CC=C[C@H](CC=C)N1
→ -3.3%	-11.4%
> O=C(C1CCN(S(=O)(=O)c2ccc(Br)s2)CC1)N1CCN(c2cccc(Cl)c2)CC1
→ -6.5%	-4.3%
> Nc1nccnc1C(=O)NCCNc1cnccn1
→ ?	1.4%
> O=C(COC(=O)c1ccc2ccccc2n1)Nc1ccc(F)cc1
→ -5.3%	2.7%
> Cc1c(C(=O)N(C)C)sc2c1c(=O)n(-c1ccccc1C(F)(F)F)c(=O)n2Cc1ccccc1C#N
→ -18.3%	0.0%
> COc1ccccc1CNC(=O)C(Cc1ccccc1)NS(=O)(=O)c1ccc2c(c1)oc(=O)n2C (stereo not given)
→ 63.9%[activator]	-22.3%
> O=C(C(c1ccccc1)c1ccccc1)N(Cc1ccccc1)C1CC1
→ 9.2%	-9.8%
> CCc1cc(=O)oc2c(C)c(OCC(=O)Nc3ccc(S(=O)(=O)N(CC)CC)cc3)ccc12
→ -7.8%	-13.0%
> CCC(C)c1ccc(-c2csc(NC(=O)Cn3c(=O)c4c(ncn4C)n(C)c3=O)n2)cc1 (stereo not given)
→ ?	?
> N#CC1=C(SCC(=O)Nc2ccccc2)NC(=O)C(C#N)C12CCCC2 (stereo not given)
→ -26.5%	-21.9%
> Cc1ccc(CN2c3ccccc3-c3nc(SCC(=O)NCCc4ccccc4)ncc3S2(=O)=O)cc1
→ -27.4%	-23.1%
> COc1ccc(C2CC(=O)N(CC(=O)Nc3ccc(C)c(Cl)c3)c3ccccc3S2)cc1OC (stereo not given)
→ -7.6%&5.7%	0.0%&38.1%
> COc1ccc(-c2cc(NC(=O)c3ccco3)n(C3CCS(=O)(=O)C3)n2)cc1 (stereo not given)
→ 65.0%[activator]	35.9%[activator]
> COc1ccc(CNC(=O)CC2CCN(C(=O)c3ccc4nc(-c5ccc(C)cc5)oc4c3)CC2)cc1
→ 17.2%	-0.9%
> CC(C)NC(=O)NC(=O)CN1CCCc2c(C(=O)NC(C)C)cccc21
→ -6.1%	-0.5%

Compound profiles, from the list above. Order of values: 2A Renilla | 2A firefly
Fc1cccc(OCc2nnc(-c3ccc(Br)cc3)o2)c1 as listed: 15.7% | 113.6%[activator]
CC(C)(C)C(=O)NC1CCCc2ccccc21 (stereo not given) as listed: 7.4% | 0.6%
CC(=O)N1CCCc2cc(S(=O)(=O)N(C)CC(=O)Nc3ccc(C)cc3C)ccc21 as listed: -13.2% | -17.8%
CCn1c(SCC(=O)c2ccc(C#N)cc2)nnc1-c1ccccc1 as listed: -10.0% | -10.8%
Cc1ccc(C(=O)N/C(=C\c2ccc(-c3ccc(Cl)cc3Cl)o2)C(=O)NC(C)(C)C)cc1 as listed: 10.1% | ?

This is a subset; count on the stated rates, not on these rows.
